SARS PLpro yeast: SARS-CoV PLP inhibition in yeast; S. cerevisiae expressing SARS-CoV PLpro, growth rescue; control for the full effect not named in the record; hit rate 0.19% among 330,000; Potency, µM (series often up to 32.9 µM), inactives show at the highest dose activity, positive = growth rescue; AID 485353; active means well fitted rising curve with a large enough effect; inconclusive means small, poorly fitted or top-dose-only effect; inactive means no such curve, though single readings can be large or run the other way; note: 0% is about no effect; nearly all actives have a fitted effect of over 55% in size; growth read by luminescence after 48 h
RE007 growth inh: less growth of the S. pombe RE007 Vpr strain. hit rate 0.21% among 360,000. AID 651644. S. pombe RE007 Vpr strain, BacTiter-Glo ATP luminescence, 24 h; control for the full effect not named in the record. Potency, µM (highest dose often 92.2 µM), for the others: at the highest dose activity change, negative = less growth; active = well fitted falling curve with a large enough effect; inconclusive = small, poorly fitted or top-dose-only effect; inactive = no such curve, though single readings can be large or run the other way;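 note: % is set by controls: 0 for no effect and ±100 for the full control effect; nearly all actives have a fitted effect of over 50% in size; the assay follows cell death caused by Vpr and the record does not say whether a fall means rescue or toxicity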
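Fission yeast RE007 carrying one integrated HIV-1 vpr copy, seeded at OD 0.01 in PMG+AL medium with 23 nL pinned compound. Grown 24 h at 30 degrees; viability read by BacTiter-Glo luminescence after 5 min.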
StopGo reporter: lowers the luciferase signal of an FMDV 2A StopGo reporter; human cells with a luciferase reporter of 2A StopGo recoding; control for the full effect not named in the record; Potency, µM (titrated, usually from 57.9 µM), for inactives: top-dose signal change, negative = less light; hit rate 1.2% among 410,000; AID 1159524; active = well fitted falling curve with a large enough effect; inconclusive = small, poorly fitted or top-dose-only effect; inactive = no such curve, though single readings can be large or run the other way; tested in HEK293T cells; note: % is set by controls: 0 for no effect and ±100 for the full control effect; nearly all actives have a fitted effect of over 45% in size; luciferase light after 4 h
The depositor's hits bear a star; ? = inconclusive; & = joins results of further samples; [ ] = another dose, or the depositor's remark. Potency is the fitted concentration of half-maximal effect.

SMILES | SARS PLpro yeast | RE007 growth inh | StopGo reporter
COCCN(C(=O)c1ccc(-c2ccc(Cl)cc2)o1)c1c(N)n(CC(C)C)c(=O)[nH]c1=O | -2% | 3% | -25%
Cc1ccc(CN(C)C(=O)CCNS(=O)(=O)c2ccccc2)o1 | -7% | -7% | 17%
CN1CCN(CCCNC(=O)c2ccc(/C=C3\Sc4ccccc4N(Cc4ccccc4F)C3=O)cc2)CC1 | -2% | 4% | 2%
O=C(NCCCl)c1ccc(OCc2ccccc2)cc1Cl | -6% | 3% | 71%[activator]
CN(Cc1ccco1)C(=O)CN1C(=O)NC2(CCCCC2)C1=O | 0% | -8% | -15%
CCN1C(=O)[C@@H]2[C@@H](c3ccc(SC4CCCCC4)c(OC)c3)N3CCCC[C@@]3(C(=O)OC)[C@@H]2C1=O | -3% | -4% | -2%
COc1ccccc1NC(=O)C(C)OC(=O)c1cc2ccccc2[nH]1 (stereo not drawn) | -7% | 7% | ?
C[C@H](CO)N1C[C@H](C)[C@@H](CN(C)S(=O)(=O)c2ccc(F)cc2)Oc2ccc(NS(=O)(=O)c3cccs3)cc2C1=O | -10% | 10% | 11%
COc1ccccc1CN(C)CC(=O)NC(=O)NC1CCCCC1 | -2% | -15% | -11%
O=c1[nH][nH]c(-c2ccccc2)c1C=Nc1ccc(OC(F)(F)F)cc1 | 10% | 7% | -7%

Single records (already shown). Values in the order: SARS PLpro yeast	RE007 growth inh	StopGo reporter
Listed for `COc1ccccc1NC(=O)C(C)OC(=O)c1cc2ccccc2[nH]1` (stereo not drawn) : -7%	7%	?
Listed for `CN1CCN(CCCNC(=O)c2ccc(/C=C3\Sc4ccccc4N(Cc4ccccc4F)C3=O)cc2)CC1` : -2%	4%	2%
Listed for `Cc1ccc(CN(C)C(=O)CCNS(=O)(=O)c2ccccc2)o1` : -7%	-7%	17%
Listed for `COc1ccccc1CN(C)CC(=O)NC(=O)NC1CCCCC1` : -2%	-15%	-11%

Additional compounds
SMILES | SARS PLpro yeast | RE007 growth inh | StopGo reporter
COc1ccc(-c2c(-c3cc(OC)cc(OC)c3)n(C)c3ccc(-c4ccc(OC)c(F)c4)cc23)cc1 | -1% | 12% | 0%
O=C1COc2cc(ccc2[N+](=O)[O-])Oc2ccc(cc2Cl)C(=O)CCCCO1 | -13% | 2% | -21%
COc1ccc(C(CNC(=O)COc2cccc(C)c2)N2CCCC2)cc1 (stereo not drawn) | -3% | -1% | -9%
O=C(COC(=O)c1ccc(Br)o1)NCc1ccc(F)cc1 | -4% | 17% | -18%
CCOc1[nH]n(-c2ccc(Cl)cc2)c(=O)c1C=NCC(=O)OC | 1% | -10% | -4%
CNC[C@H]1Oc2ccc(NC(=O)Cc3cn(C)c4ccccc34)cc2CC(=O)N([C@@H](C)CO)C[C@H]1C | 1% | -21% | -16%
O=C(Nc1ccccc1N1CCOCC1)c1ccc(Cl)c(S(=O)(=O)N2CCCC2)c1 | -7% | 3% | -18%
CCCCNS(=O)(=O)CCNCCc1ccccc1 | 0% | -9% | 7%
CCN(CC)C(=O)[C@H]1C[C@H](CC(=O)NCc2ccc(OC)c(OC)c2)C(=O)N2CCc3c([nH]c4cc(-c5ccco5)ccc34)[C@]12C | 1% | -4% | 0%
COc1ccc(-c2csc(NCCn3c(C)nc4cc(C(F)(F)F)ccc43)n2)cc1 | -18% | 2% | -18%
CN(CCOc1ccc(Cl)cc1)C(=O)c1ccccc1SCC(=O)N1CCCC1 | 2% | -8% | ?
COc1ccc(NC(=O)Cn2c(CCC(=O)O)ccc2-c2ccc(C)cc2)cc1 | 25% | -5% | 5%
CC(C)C[C@H](NC(=O)c1nc[nH]c1C(=O)N1CCNCC1)C(=O)OC(C)(C)C | -19% | 55% | -8%
O=C(/C=C/c1ccc(S(=O)(=O)N2CCOCC2)cc1)NCc1ccccc1F | 1% | -1% | 5%
O=S(=O)(Nc1cccc(S(=O)(=O)N2CCCC2)c1)c1ccc(Cl)cc1 | -5% | 3% | 58%[activator]
O=C(CCN1C(=O)c2ccccc2C1=O)NCCCn1ccnc1 | -2% | -13% | 5%
COc1ccc(NC(=O)CS(=O)CC(=O)NCC2OCCc3ccccc32)cc1 (stereo not drawn) | -1% | 0% | 3%
CCCCOc1ccc(C(=O)NCC(=O)NC2CCCCC2)cc1 | -2% | 0% | -10%
COc1cc2sc3cc(NCC[C@@H]4CCCN4C)ccc3c(=O)c2cc1OC | -2% | -24% | 33%[activator]
CN(C)C(=O)c1ccc(NC(=O)c2cccc(S(=O)(=O)N3CCCCCC3)c2)cc1 | -12% | -18% | 0%

Reprinted from the part before: 3 compounds, then new ones.
SMILES | SARS PLpro yeast | RE007 growth inh | StopGo reporter
CCCCOc1ccc(C(=O)NCC(=O)NC2CCCCC2)cc1 | -2% | 0% | -10%
COc1cc2sc3cc(NCC[C@@H]4CCCN4C)ccc3c(=O)c2cc1OC | -2% | -24% | 33%[activator]
CN(C)C(=O)c1ccc(NC(=O)c2cccc(S(=O)(=O)N3CCCCCC3)c2)cc1 | -12% | -18% | 0%
COc1ccc(C(=O)COC(=O)c2cc(C)no2)c(OC)c1 | 4% | -16% | -17%
Cc1cccc(NC(=O)c2ccc(Cl)c(S(=O)(=O)N3CCc4ccccc43)c2)n1 | 7% | 2% | ?
Cc1ccc(S(=O)(=O)N2CCCCC2)cc1NC(=O)CSc1ncccn1 | 3% | 11% | -2%
Cc1cccc(NC(=O)C2CCN(C(=O)c3ccccc3C)CC2)n1 | 0% | -10% | 33%[activator]
CC(C)CC1Nc2ncnc(N3CCN(c4ccccn4)CC3)c2N(Cc2ccc(Cl)cc2)C1=O (stereo not drawn) | -1% | 4%&-16% | -19%&0%
CC(=O)c1ccc(N2CCN(C(=O)c3cn(Cc4ccccc4)nc3-c3cccnc3)CC2)c(F)c1 | 2% | 11% | 53%[activator]
Cc1c(C(=O)OCC(=O)N(C)Cc2ccccc2)oc2ccccc12 | 3% | -7% | 9%
COC(=O)NNC(=S)Nc1ccc(Br)cc1 | 0% | -27% | 13%
C[C@H]1COC(=O)[C@H](CC(=O)OC(C)(C)C)C/C=C\C[C@@H](CC(=O)N[C@H](CO)Cc2ccccc2)C(=O)N1 | -5% | 7% | 21%
CN(C)C1=NC[C@H](Cc2ccccc2)N1CCc1cccc(F)c1 | 3% | 3% | 6%
Clc1cccc(N2CCN(c3nnnn3-c3ccccc3)CC2)c1 | -14% | 7% | ?
C=CCN1CC[C@]23c4c5ccc(O)c4OC2C(O)C=CC3[C@H]1C5 (stereo partly drawn) | -1% | 11% | -4%
O=C(Cn1cnc2c(NCc3ccccc3)ncnc21)NCc1ccccn1 | 0% | 0% | -22%
CS(=O)(=O)c1ccc(-c2sc3cc4c(cc3c2C(=O)NN2CCOCC2)OCO4)cc1 | -11% | -1% | -4%
Nc1nc(F)cc(NCc2ccccc2)n1 | -3% | -5% | 8%
COc1cc(OC)cc(-c2c(-c3ccc(F)cc3)c3cc(-c4cnc(OC)nc4)ccc3n2C)c1 | -2% | 8% | ?
COC(=O)c1c(-c2ccc(SC)cc2)sc2ccccc12 | -2% | 5% | 35%[activator]
COc1ccc(N2CCN(C(=O)COC(=O)c3oc4ccccc4c3C)CC2)cc1 | 2% | -23% | ?
O=C(CSc1nccn1-c1ccccc1)NO | 0% | 2% | 5%
Cc1ccc(NC(=O)c2ncn(CC(=O)NCc3ccccc3)n2)cc1C | -17% | 3% | 29%
Cc1nc2ccccn2c1C(=O)N/N=C/c1ccc([N+](=O)[O-])o1 | -1% | -21% | -27%
CC1=C(C(=O)OCc2ccc3c(c2)OCO3)C(c2cccc([N+](=O)[O-])c2)NC(=O)N1 (stereo not drawn) | 2% | -6% | -23%
CC(C)(C)c1ccccc1NC(=O)Cn1cnc2cc([N+](=O)[O-])ccc2c1=O | 2% | -7% | -1%
O=C1CCN(C(=O)c2ccc(Cl)cc2)N1 | 7% | 8% | -15%
Cc1cc(C)c(S(=O)(=O)n2cc(C(C)C(N)C(=O)O)c3ccccc32)c(C)c1 (stereo not drawn) | -1% | 3% | -3%
C[C@H](C[C@H](O)[C@H]1OC1(C)C)C1=C2C[C@H](O)C3[C@@]4(C)CCC(=O)C(C)(C)C4CC[C@]3(C)[C@@]2(C)CC1 (stereo partly drawn) | 2% | 7% | ?
COc1cc(OC)cc(-c2c(C#Cc3ccsc3)c3cc(-c4ccc(OC)c(OC)c4)ccc3n2C)c1 | -3% | -1% | -4%
CC1CC(C)(C)CC(=O)C1C(=O)c1ccccc1 (stereo not drawn) | 5% | 31% | -14%
CCCCN(C(=O)COC(=O)c1nc2nc(C)cc(C)n2n1)C1CCS(=O)(=O)C1 (stereo not drawn) | -1% | 1% | -12%
CCCc1nc2c(s1)CCc1onc(-c3ccc(Cl)cc3)c1-2 | 0% | -4% | -6%
O=C(COc1ccccc1)OCC(=O)c1ccc(O)cc1O | -8% | 5% | -11%
CCC(C)(C)C1CCc2[nH]nc(C(=O)NCc3ccccn3)c2C1 (stereo not drawn) | 5% | 5% | -13%
Cc1ccc(S(=O)(=O)NCC(c2cccnc2)N2CCOCC2)cc1 (stereo not drawn) | 1% | -1% | 0%
C=CC[C@]12CCc3sccc3C1N(c1ccc(C(=O)OCC)cc1)C2=O (stereo partly drawn) | 0% | -6% | ?
c1ccc([C@H]2CNCCN2CCc2cccc3ccccc23)cc1 | 1% | -21% | -23%
CC(C)NS(=O)(=O)c1ccc(NC(=O)C(C)OC(=O)CCC(=O)c2cccs2)cc1 (stereo not drawn) | -2% | -9% | 0%
CC(=O)c1ccc(N2CCN(C(=S)NCc3ccco3)CC2)cc1 | 1% | 3% | -4%
Cc1nc(SCC(=O)c2c(N)n(C3CC3)c(=O)[nH]c2=O)[nH]c(=O)c1CCO | 4% | ? | -3%
CC1(C)CC(=O)C=C(c2ccc(F)cc2OCc2ccccc2)C1 | 2% | 3% | ?
CC1(C)O[C@@H]2[C@H](O1)[C@@H](CO)O[C@H]2n1cnc2c(=O)[nH]cnc21 | 4% | -2% | -8%
Cc1sc2ncnc(NS(=O)(=O)c3ccc(Cl)cc3)c2c1C | -5% | -10% | -19%
Cc1ccc(NC(=O)CCNS(=O)(=O)c2ccc3c(c2)c(=O)n(C)c(=O)n3C)cc1C | 2% | -12% | 24%
O=C(CCc1ccccc1Cl)Nc1cc2c(cc1C(=O)O)OCCCO2 | 8% | 8% | -2%
CCc1ccccc1OCC(=O)NNCC(=O)Nc1cccc(C#N)c1 | 6% | 6% | ?
Cc1ccc(C(=O)COC(=O)CNC(=O)c2ccccc2)s1 | 0% | 1% | -6%
CC(C)CNC(=O)CSc1ccc(S(=O)(=O)N2CCN(C)CC2)cn1 | 0% | -5% | -13%
COC(=O)c1c(C)[nH]c(C(=O)COC(=O)CCNS(=O)(=O)c2cccc(C(F)(F)F)c2)c1C | -2% | 6% | -13%
Cc1ccc(C(=O)NC(C(=O)OCc2cn3cc(Cl)ccc3n2)C(C)C)cc1 (stereo not drawn) | -1% | 4% | -19%
c1ccc(NC2=NCCN2CCCC2CCCCC2)cc1 | -3% | -7% | -29%
CCOC(=O)N1CCN(C(=O)c2cc3c(s2)-c2ccc(Cl)cc2S(=O)(=O)C3)CC1 | -2% | 1% | ?

(list continues)
SMILES | SARS PLpro yeast | RE007 growth inh | StopGo reporter
CCN(CC(=O)Nc1ccc(NC(C)=O)cc1)C(=O)c1sc2nc3n(c(=O)c2c1C)CCC3 | -4% | 3% | -13%
O=c1[nH]cnc2c1ncn2[C@@H]1O[C@H](COS(=O)(=O)O)[C@@H](O)[C@H]1O | -44% | -5% | -20%
CCN(C[C@H]1N[C@@](Cc2ccccc2)(C(=O)OC)[C@H]2C(=O)N(Cc3ccccc3)C(=O)[C@@H]12)C(=O)COC | -1% | 10% | -23%
CC[C@]12c3[nH]c4ccccc4c3CCN1C(=O)C(CC(=O)NCC13CC4CC(CC(C4)C1)C3)C[C@@H]2C(=O)N1CCN(C(=O)C2CC2)CC1 (stereo partly drawn) | 5% | 5% | ?
O=C(CN1CCCc2ccccc21)Nc1cc(S(=O)(=O)N2CCCC2)ccc1Cl | 0% | 4% | -4%
COc1ccc(C(=O)NCc2nnc(SCC(=O)NO)n2Cc2ccccc2)cc1 | 3% | -10% | -5%
CC1CCCC(NC(=O)COC(=O)Cc2ccc(Cl)cc2)C1C (stereo not drawn) | 1% | -10% | -2%
NC(=O)c1c(NC(=O)c2ccncc2)sc2c1CCCC2 | -4% | 2% | 18%
O=C(c1ccccc1Br)N1CCN(c2ccc([N+](=O)[O-])c(N3CCOCC3)c2)CC1 | 1% | 3% | -18%
CCOc1ccc(C=NNC(=O)c2ccc(-n3cnnn3)cc2)cc1 | -4% | 14% | -8%
CCCCn1c(N)c(N(CCC(C)C)C(=O)COC(=O)c2cccnc2OCC)c(=O)[nH]c1=O | -6% | 6% | -14%
CCCCN(C(=O)c1c(C)noc1C)c1c(N)n(CCC)c(=O)[nH]c1=O | -1% | 1% | -12%

Compound activity (PubChem)

A portion of the library (hit frequency here may not be typical).
